Screening data: PubChem, ICCB-Longwood Screening Facility, Harvard Medical School
AID504770: growth inhibitors of E. coli YBA685 in a screen for V. cholerae RctB (chromosome II replication) inhibitors | 130,000 tested, 0.27% active | AID 504770 | z-score (no concentration beside the values) | E. coli YBA685 rctB-dependent plasmid, OD600 growth, 3 h; active compounds read low;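 active = z-score under -2 on both plates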;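 also: wells of about 30 µL received 100 nL stock; score is relative to mean and SD of the test wells; the first replicate is given; strong numbers were not always called active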
Ba CapD inh: inhibitors of Bacillus anthracis CapD enzyme. purified CapD enzyme, fluorescence intensity read-out; active compounds read low; some hits fall short of the stated cut. z-score (test concentration not listed). 140,000 tested, 0.23% active;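 active = z-score under -4 in either of two replicates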;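 also: stock transfer was 100 nL into about 40 µL; score is relative to mean and spread of the plate; one replicate is shown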
* = called active by the depositor; i = inactive; x = no result given.

Start of the data: the first four records as a preview:
Results follow in this order: AID504770 | Ba CapD inh
O=C(Cc1cccc(C(F)(F)F)c1)Nc1nnc(-c2ccccc2)o1
    -0.15 | x
O=S(=O)(Nc1ccccc1)c1ccc(N2CCCCS2(=O)=O)cc1
    -1.1 | 0.34
COC(=O)c1ccc2nccnc2c1
    x | 0.05
COc1ccccc1-n1cnc2cc(N=Cc3ccccc3O)ccc21
    -0.05 | -0.55

The whole of this part, from the start:
Results follow in this order: AID504770 | Ba CapD inh
O=C(Cc1cccc(C(F)(F)F)c1)Nc1nnc(-c2ccccc2)o1
    -0.15 | x
O=S(=O)(Nc1ccccc1)c1ccc(N2CCCCS2(=O)=O)cc1
    -1.1 | 0.34
COC(=O)c1ccc2nccnc2c1
    x | 0.05
COc1ccccc1-n1cnc2cc(N=Cc3ccccc3O)ccc21
    -0.05 | -0.55
O=C1Nc2ccccc2O/C1=C\c1ccc(C(=O)NCCCN2CCOCC2)cc1
    0.85 | 91
CCN(CC)c1ccc(C=C(C#N)C#N)c(OC(C)=O)c1
    0.05 | -1.9
O=C1C2ON(c3ccc(Br)cc3)C(c3cccnc3)C2C(=O)N1C1CCCCC1 (configuration not stated)
    -1.3 | -0.17
O=C(O)C1C2CCCCC2=C2CCCCC2C1C(=O)c1ccccc1 (configuration not stated)
    0.8 | 0.72
CN1CC=C(/C=C/c2ccccc2)CC1
    1.4 | -0.62
CC(C)NC(=O)c1ccc2snnc2c1
    -0.85 | -0.96
O=C(NCc1ccc(Cl)cc1)c1ccc2c(=O)n3c(nc2c1)CCCCC3
    -0.25 | 0.86
CC(C)NC(=O)CCn1cnc2onc(-c3ccc(F)cc3)c2c1=O
    -0.45 | -1.9
COC(=O)c1cc(S(=O)(=O)N2CCCCCC2)c[nH]1
    -1.4 | -0.1
COC(=O)C(Cc1ccccc1)NC(=O)c1ccccc1COC(=O)c1ccccc1 (configuration not stated)
    x | -0.63
COC(=O)C1=NNC2C(=O)N(c3c(C)cc(C)cc3C)C(=O)C12 (configuration not stated)
    x | -0.075

An excerpt from above in order of SMILES length, descending:
Results follow in this order: AID504770 | Ba CapD inh
CC(C)NC(=O)CCn1cnc2onc(-c3ccc(F)cc3)c2c1=O
    -0.45 | -1.9
COc1ccccc1-n1cnc2cc(N=Cc3ccccc3O)ccc21
    -0.05 | -0.55
COC(=O)c1ccc2nccnc2c1
    x | 0.05

Remaining list, next part.
Results follow in this order: AID504770 | Ba CapD inh
N#Cc1ccsc1NC(=O)COC(=O)Cc1cccc(C(F)(F)F)c1
    x | -0.42
O=C(Cn1ncc2c1-c1ccccc1OC2)NCc1ccccc1
    -0.85 | 0.27
O=C1OCC(c2ccc(Cl)s2)=C1c1cccs1
    -0.1 | 0.42
COC(=O)C1=C(C)NC2=C(C(=O)CC(c3ccc(Cl)cc3)C2)C1c1cc2c(cc1Br)OCO2 (configuration not stated)
    x | 4.7
O=C(Sc1nc(-c2ccccc2)c(-c2ccccc2)[nH]1)c1cccs1
    0.95 | 52
COc1ccc(C2C(C(=O)N3CCCCC3)c3ccccc3C(=O)N2c2ccc(OC)cc2)cc1 (configuration not stated)
    x | 0.15
Cc1cc(C)c(C(=O)O)c(CC(C)(C)C(=O)N(C)C2CCN(Cc3cccc(Cl)c3)C2)c1 (configuration not stated)
    x | 0.78
c1cncc(-c2[nH]ncc2-c2ccc3ccccc3n2)c1
    x | 11
CCCC1C(C#N)=C(SCc2cccc([N+](=O)[O-])c2)NC(C)=C1C(C)=O (configuration not stated)
    x | -0.19
C=C(C)CNC(=O)CCc1ccc(S(C)(=O)=O)cc1
    x | 0.28
O=C(OCCCc1ccccc1)N1CCCC(O)C1 (configuration not stated)
    x | 0.14
C=CCn1c(O)c(N=O)c2ccccc21
    -0.9 | 1.5
CCN(CC)P1(=S)N(C)P(=S)(N(CC)CC)N1C (configuration not stated)
    -0.25 | x
CC(=O)Nc1ccc(C(=O)NN)cc1
    -0.4 | 0.08
CCOC(=O)c1c(C)n(-c2ccccc2)c2ccc(OC(=O)c3ccc(-c4ccccc4)cc3)cc12
    x | 0.57

Record cards (already shown). Order of values: AID504770	Ba CapD inh
Results for C=CCn1c(O)c(N=O)c2ccccc21 → -0.9	1.5
Results for COC(=O)C1=C(C)NC2=C(C(=O)CC(c3ccc(Cl)cc3)C2)C1c1cc2c(cc1Br)OCO2 (configuration not stated) → x	4.7
Results for CCOC(=O)c1c(C)n(-c2ccccc2)c2ccc(OC(=O)c3ccc(-c4ccccc4)cc3)cc12 → x	0.57

The list goes on.
Results follow in this order: AID504770 | Ba CapD inh
CCN(CC)CCCN1C(=O)C2C3C=CC(C2C1=O)C1C2C(=O)N(CCCN(CC)CC)C(=O)C2C31 (configuration not stated)
    x | 0.29
CC(=O)Nc1nonc1NC(=O)C12CC3CC(CC(C3)C1)C2
    1.5 | 0.055
O=C1CC(c2cccs2)Sc2nc3ccccc3n21 (configuration not stated)
    2.6 | -1.1
CCOC(=O)N1CCN(C(=O)C2CC(c3ccc(OC)c(OC)c3)=NO2)CC1 (configuration not stated)
    0.1 | 0.075
CC(Sc1nnc(N)s1)C(=O)N1N=C(c2ccc(Cl)cc2)CC1c1ccco1 (configuration not stated)
    -0.3 | x
C/C(=N\N=C1/NC(=O)C(CC(=O)O)S1)c1ccc(C)o1 (configuration not stated)
    1.4 | x
CCOC(=O)c1sc(NC(=O)C(C)Sc2nnc(CNC(=O)c3cccc(OC)c3)n2C)c(C(=O)OCC)c1C (configuration not stated)
    x | -0.35
CCc1nn2c(=O)cc(CN(C)Cc3ccccc3)nc2s1
    -0.35 | 1.5
COC(=O)C1=CN(C2CC2)C=C(C(=O)OC)C1c1ccc(OC(F)(F)F)cc1
    -0.3 | 19
CC1=C(C(=O)OCC2CCCO2)C(c2coc3ccc(Cl)cc3c2=O)C2=C(CC(C)(C)CC2=O)N1 (configuration not stated)
    x | -0.79
CC(O)(C#CCN1CCCCC1)C1CC1 (configuration not stated)
    -0.7 | 0.1
COc1ccc2c(c1)CCc1c(C(=O)NCc3ccccc3)noc1-2
    1.5 | -0.32
Cc1nn2cnnc2c(C)c1CCC(=O)N1CCCC1
    -0.5 | 3.6
Cc1cc(OC(C)C(=O)O)cc(C)c1Cl (configuration not stated)
    -0.55 | x
O=C(N=Nc1c(O)[nH]c2cc3c(cc12)OCCCO3)C1CCCCC1
    -0.75 | x
Cn1ccnc1SCc1cc(=O)[nH]c2ccccc12
    -0.05 | -0.33
COc1ccccc1N1CCN(S(=O)(=O)c2ccc(Cl)s2)CC1
    0.7 | 0.25
Clc1nc(NCc2cccnc2)nc(Nc2ccccc2)n1
    x | 1.6
CCc1ccc(NC(=O)Nc2ccc3nc(N4CCN(C)CC4)cc(C)c3c2)cc1
    0.8 | 41
CCOC(=O)C1=CN(O)/C(=C\N=O)C=C1
    -0.7 | x
CN(C)/C=C1\N=C(c2cccnc2Sc2ccc(Cl)cc2)OC1=O
    -1.5 | 0.41
COc1cc(Br)c(CCC#N)cc1OC
    x | 0.15
CCCCOc1ccc(C2=N/C(=C\c3cc(OC)c(OC)c(OC)c3)C(=O)O2)cc1
    x | 0.48
COc1ccc(C(=O)Nc2cc(C(=O)Nc3ccc(OC)c(Cl)c3)ccc2N2CC3CC(C2)c2cccc(=O)n2C3)cc1 (configuration not stated)
    x | 0.12
CCC1CSC(Nc2ccccc2OC)=N1 (configuration not stated)
    -0.05 | x
COc1ccc(-c2coc3cc(O)cc(O)c3c2=O)cc1
    x | -0.69
O=c1[nH][nH]c(=O)c2c(N=Cc3cccc4ccccc34)cccc12
    1.4 | 59
Cc1cccc(C)c1-n1c(N)c(C(=O)NCCc2ccccc2)sc1=S
    x | -0.68
CC(=C\c1ccccc1)/C=C1/SC(=S)N(C2CCCCC2)C1=O
    -0.05 | 1.2
CCOC(=O)c1cc2cccc(NS(=O)(=O)c3cccs3)c2[nH]1
    x | -0.73
Cc1ccc(C(=O)NC(C)C(=O)NC2CCCCC2)cc1 (configuration not stated)
    -0.5 | -0.41
CC1CCN(CCCNC(=O)Cn2ncc3c([nH]c4ccccc43)c2=O)CC1
    -0.6 | 4
COc1cc(C)c(/C=N/NC(=O)C2CC2c2ccccc2)cc1C (configuration not stated)
    x | 0.64
COc1ccccc1C(=O)Nc1ccc(S(=O)(=O)NC(C)C)cc1
    -0.7 | -0.15
Cc1ccc(NC(=O)COc2cccc3c2CCN(Cc2cccnc2)C3=O)c(C)c1
    0.35 | x
c1ccc(CSc2nnc(-c3ccco3)n2-c2ccccc2)cc1
    0.75 | -0.33
COc1cccc2sc(N(CCN(C)C)C(C)=O)nc12
    0.05 | -0.66
N#Cc1cc(C#N)c(=S)[nH]c1N
    0.6 | x
CC(C)(C)CC(=O)NN1C(=O)c2cccc3cccc(c23)C1=O
    0.45 | x
COc1ccc(OC)c(NC(=O)c2cnc3sccn3c2=O)c1
    -0.65 | x
CCn1c(SCC(=O)c2ccccc2)nnc1-c1cccs1
    -0.3 | -0.61
CCCc1[nH]n(-c2ccc(F)cc2)c(=O)c1C=NCCCN(CC)CC
    x | -0.73
COc1ccc(C#N)cc1OC
    -0.75 | x
COC(=O)c1sc2c(C)cc(Cl)c(C)c2c1C(=O)O
    1.5 | -0.33
O=C1OC2(CCCCC2)OC(=O)C1=CNc1ccc(Cl)cc1C(F)(F)F
    -0.15 | 33

New compounds follow.
structure,AID504770,Ba CapD inh
COc1cccc(CNC(C)C23CC4CC(CC(C4)C2)C3)c1OCc1cccs1 (configuration not stated),-0.95,0.41
Cc1n[nH]c(C)c1CCCOc1ccccc1,-0.95,20
CC12CCC(C(=O)Nc3ccccc3)(OC1=O)C2(C)C (configuration not stated),-0.85,0.08
CCc1ccccc1NC(=O)N1CCC(NC(=O)C(Cc2ccccc2)NC(C)=O)CC1 (configuration not stated),-0.9,x
COc1ccc2c(CC(=O)Oc3ccc(-c4ccc(C#N)cc4)cc3)coc2c1,-0.15,x
O=C(OCc1cc(=O)oc2cc(O)ccc12)c1cc(Br)ccc1O,-0.55,x
O=C1NC(=S)NC(=O)C1=Cc1ccc([N+](=O)[O-])s1,x,-2.1
CC1CN=C(N(C(=O)Nc2ccc(Cl)cc2)C(C)c2ccccc2)S1 (configuration not stated),-0.7,0.18
O=S(=O)(NCCCNS(=O)(=O)c1cc(Cl)sc1Cl)c1cc(Cl)sc1Cl,x,0.16
COc1ccc(-c2cc(C(F)(F)F)nc(SC3CC(O)C4OCC3O4)n2)cc1OC (configuration not stated),0.35,42
O=NC1=C(c2c(O)[nH]c3ccccc23)CCCC1,-1.8,0.23
CCc1ccc(NC(=O)C2CC3CCCN3C23C(=O)Nc2ccccc23)cc1 (configuration not stated),-0.65,-1.7
O=C(O)CCCc1ccc(F)cc1,-0.6,x
CC(C)C1c2cccn2CCN1C(=O)Nc1ccccc1 (configuration not stated),-0.85,-0.045
Cc1ccc(CSc2nc3nccnc3c(=O)n2CCC(C)C)cc1,-1.2,-0.14
O=C(CCc1ccccc1)N1CCN(c2ccccc2)CC1,-0.55,0.29
COc1ccc(OCCn2cc(C(=O)C(C)(C)C)c3ccccc32)cc1,-0.35,-0.59
CC(Sc1cccc2cccc(C(=O)O)c12)C(=O)O (configuration not stated),-1.2,0.2
O=C1c2ccccc2S(=O)(=O)N1Cc1cc(=O)[nH]c(=O)[nH]1,0.05,x
COc1ccc(CNCC(O)c2nnn(C)n2)cc1OC (configuration not stated),0.9,x
CCCCN(CCCC)CCNS(=O)(=O)c1ccc(Oc2cccc(Cl)c2C#N)cc1,x,0.28
O=C(O)CSc1nc2ccccc2n1C1CCCCC1,x,-0.18
NC(=O)c1cc2cc(Br)ccc2oc1=O,-0.7,0.36
C/C=C/C1OCC2C(C)C=C(C)C1C2C (configuration not stated),-0.6,x
O=C(NC1CCCC1)C(c1ccsc1)N(C(=O)Cc1cccs1)c1ccccc1 (configuration not stated),-0.45,x
CCn1c(Sc2ccc(N)cc2Cl)nc2ccccc21,-0.05,0.35
CC1(C)S[C@@H]2[C@H](NC(=O)COc3ccccc3)C(=O)N2[C@H]1C(=O)O,0,-0.11
CC(C)(C)S(=O)(=O)/C(C#N)=C/N1CCN(C(c2ccccc2)c2ccccc2)CC1,-0.1,-1.8
CCOc1ccc(NC(=O)c2cc3oc(C)cc3n2Cc2ccc(C)cc2)cc1,1.3,1.8
CCC(=O)N(Cc1ccco1)c1nc(-c2ccccc2)cs1,-0.2,x
COc1ccc(Nc2ncc(-c3cc4cc(OC)ccc4oc3=O)s2)cc1,0.65,0.6
COc1ccc(NC(C)=S)cc1C,0.5,0.24
Cc1ccc(N=C(NOCc2ccc(Cl)cc2Cl)c2nonc2N)cc1,x,-0.35
Cc1csc2nc(CSc3nc4ccccc4s3)c(Br)n12,x,0.18
CN1CCN(C(=O)COc2cc(-c3ccccc3)nc3ccccc23)CC1,-0.05,0.57
O=C(COc1ccc2oc3c(c2c1)CCCC3)Nc1ccncc1,-3.3,-0.04
Cc1c(CO)[nH]c2ccc(F)cc12,-0.9,-0.18
CC1CCNC(c2cccn2C)CC1 (configuration not stated),1.2,x
C=CCOc1c(Br)cc(Br)cc1C=Nc1c(C)n(C)n(-c2ccccc2)c1=O,x,-0.59
CC(=O)CSc1ccc(C(F)(F)F)cc1[N+](=O)[O-],x,-0.42
CN1CCN(S(=O)(=O)c2cccc(C(=O)Nc3cc(C(F)(F)F)cc(C(F)(F)F)c3)c2)CC1,-0.8,x
COc1ccc(NC(=O)Cn2c(Cc3ccccc3)nc3sc4c(c3c2=O)CCCC4)c(OC)c1,x,-0.11
CC(C)(C)c1ccc2c(c1)CN(c1cccc(C(=O)O)c1)CO2,-0.05,0.15
Oc1c(C(Nc2ccccc2)c2ccccn2)ccc2cccnc12 (configuration not stated),0.2,i
O=C1CCCC2=C1C(c1cccc3ccccc13)C1=C(CCCC1=O)N2,-1.1,54
COc1ccc(S(=O)(=O)NC2CCCCC2CO)cc1OC (configuration not stated),x,0.73
O=C(NCCC1=CCCCC1)c1cc(-c2ccccn2)nc2ccccc12,-0.05,73
CC1CN(c2nc(C(F)(F)F)cc(=O)[nH]2)CC(C)O1 (configuration not stated),-0.35,-0.045
